Ecoli rRNA inh = reduced GFP signal of wild-type E. coli, primary screen, bacterial rRNA inhibitor project, GFP/RFP fluorescence, OD600, single point; E. coli WT GFP vs humanized-ribosome RFP mutants, 24 h; active compounds read low; DMSO median 0, no signal -100; GFP signal change (wild-type ribosome), % (no concentration beside the values); hit rate 1.6% among 350,000; AID 720706, 2013;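 active = significant combined selectivity score with lowered wild-type GFP, culture density cut under 30%, mutant RFP and density less affected; inactive = any of these conditions unmet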; also: one replicate is shown; some compounds called inactive have numbers as strong as hits
AF4-AF9 inh = inhibitors of AF4 peptide binding to AF9, primary screen, biochemical, AlphaScreen, biotin-AF4 peptide, FLAG-AF9, single point; inhibition, % at 10 µM; AID 651704, 2012; Protein AF-9 (Homo sapiens), P42568; hit rate 0.47% among 350,000;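 active = every replicate reaching a set inhibition limit, whatever the replicate mean, cut at about 25% in these data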;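 also: 0% = plate neutral control median and 100% = total signal loss; the record names both 10 and 1 µM as test concentration; the first replicate is given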
Target sequence (P42568 whole entry, looked up): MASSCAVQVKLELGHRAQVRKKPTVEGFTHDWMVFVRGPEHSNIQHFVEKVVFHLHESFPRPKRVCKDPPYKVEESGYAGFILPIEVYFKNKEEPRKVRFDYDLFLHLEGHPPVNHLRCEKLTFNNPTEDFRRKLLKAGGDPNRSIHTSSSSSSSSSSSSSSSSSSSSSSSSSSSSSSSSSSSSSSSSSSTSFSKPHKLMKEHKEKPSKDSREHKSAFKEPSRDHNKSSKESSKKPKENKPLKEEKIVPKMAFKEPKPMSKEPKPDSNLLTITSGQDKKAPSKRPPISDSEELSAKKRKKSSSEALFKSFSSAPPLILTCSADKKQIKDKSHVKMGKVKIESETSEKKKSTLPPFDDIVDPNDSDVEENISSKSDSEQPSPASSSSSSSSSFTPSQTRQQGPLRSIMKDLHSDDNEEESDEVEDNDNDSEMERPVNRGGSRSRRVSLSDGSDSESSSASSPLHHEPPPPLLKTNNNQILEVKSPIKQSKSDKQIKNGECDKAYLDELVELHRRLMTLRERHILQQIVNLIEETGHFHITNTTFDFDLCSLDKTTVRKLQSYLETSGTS
E coli growth = E. coli growth inhibition, primary screen, OD600; Escherichia coli growth, 23 h; active compounds read low; OD600 absorbance (test concentration not listed); hit rate 0.21% among 330,000;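 active = OD600 absorbance below the run mean of sample wells minus 3.6 SD, in any replicate, cut at about 0.56 in these data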;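 also: stock transfer was 300 nL into about 60 µL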
FGF22 binding = binders of human FGF22 protein, primary screen, FGF22 synaptogenesis inhibitor project, biophysical, thermal shift, single point. Fibroblast growth factor 22 (Homo sapiens), Q9HCT0. recombinant FGF22 thermal shift, SYPRO orange fluorescence; percent of sucrose octasulfate shift, DMSO zero. calls only at 9.99 µM. hit rate 1.5% among 340,000;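 active = melting point raised past a set limit in the mean and every replicate; three in four hits are not shown here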
Target sequence (Q9HCT0 whole entry, looked up): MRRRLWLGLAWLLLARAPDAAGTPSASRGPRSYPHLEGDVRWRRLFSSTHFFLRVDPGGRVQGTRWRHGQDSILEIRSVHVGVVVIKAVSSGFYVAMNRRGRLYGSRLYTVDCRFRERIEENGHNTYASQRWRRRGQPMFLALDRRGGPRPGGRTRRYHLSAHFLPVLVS
T cruzi inh = inhibitors of intracellular T. cruzi growth, primary screen, luminescence, NIH3T3 host cells; hit rate 1.4% among 300,000; AID 1885, 2009; inhibition, % (concentration not given with the values); T. cruzi beta-gal in NIH3T3, 90 h;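 active = mean inhibition across valid replicates above about 55%, limit read from the data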;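 also: signal also drops with host cell toxicity which is not excluded here; 0% = plate median of DMSO wells and 100% = zero luminescence signal; higher percent means less beta-gal luminescence so fewer parasites; stock transfer was 50 nL into about 50 µL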
A1 inh = caspase 3/7 activation in MEF A1-2A-BIM cells, primary screen, A1 inhibitor project, cell-based, luminescence, HTS. caspase activation, % (no concentration beside the values). AID 2462, 2010. hit rate 0.066% among 330,000. Caspase-Glo 3/7 luminescence, 3 h; percent of clofoctol response, vehicle zero;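 active = over half of replicate activation scores above 10%, or exactly half above 10 with the replicate mean above 10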;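 also: wells of about 30 µL received 50 nL stock; many hits fall short of the cut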
Beta apoptosis = inhibitors of cytokine-induced beta cell apoptosis, primary screen, luminescence; INS-1E cytokine-induced death, ATP luminescence, 48 h; percent of positive-control rescue, neutral wells zero; protection from apoptosis, % (test concentration not listed); hit rate 0.8% among 300,000; AID 435005, 2010;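 active = all replicates at 75% or more, or half of them and the mean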;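 also: 0% = cytokine-treated negative control wells and 100% = positive control rescue; higher means more ATP so stronger rescue from cytokine killing; wells of about 40 µL received 100 nL stock; the first replicate is given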
UCH37 DUB inh = inhibitors of human UCH37 deubiquitinase, primary screen, biochemical, Ub-AMC cleavage, fluorescence; Ubiquitin carboxyl-terminal hydrolase isozyme L5 (Homo sapiens), Q9Y5K5; purified proteasome/UCH37; inhibition, % (no concentration beside the values); hit rate 0.33% among 330,000;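 active = mean of two replicates above 20%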;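 also: 0% = compound-free wells with enzyme and 100% = wells lacking proteasome; stock transfer was 100 nL into about 20 µL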
Target sequence (Q9Y5K5 whole entry, looked up): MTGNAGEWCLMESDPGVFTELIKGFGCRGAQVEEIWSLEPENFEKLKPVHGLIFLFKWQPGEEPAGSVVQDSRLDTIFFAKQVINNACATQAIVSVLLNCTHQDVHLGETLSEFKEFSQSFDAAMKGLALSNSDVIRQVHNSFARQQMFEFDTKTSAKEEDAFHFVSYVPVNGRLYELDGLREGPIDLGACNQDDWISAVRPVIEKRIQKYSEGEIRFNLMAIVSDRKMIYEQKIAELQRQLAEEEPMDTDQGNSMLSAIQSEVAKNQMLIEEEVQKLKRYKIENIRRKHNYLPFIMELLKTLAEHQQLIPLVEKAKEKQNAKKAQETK
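Signal – fluorescence, ex 355 nm, em 460 nm · System – Proteasome-bound UCH37 · Input – 0.15 nM proteasome as dispensed · Timing – 30 min preincubation with enzyme, 25 min cleavage at room temperature · Read-out basis – percent inhibition of cleavage signal versus uninhibited and no-proteasome wells · Medium – Tris-HCl pH 7.4 with ATP-MgCl2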
Ecoli rRNA inh OD600 = also measured in Ecoli rRNA inh; calls as there; OD600 change, %; measured here: OD600 growth;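 optical density of the mix in the first replicate; 0 = DMSO median and -100 = no signal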
Ecoli rRNA inh RFP = also measured in Ecoli rRNA inh; calls as there; RFP signal change, %; measured here: RFP humanized mutant strains;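 first replicate; 0 = DMSO median and -100 = no signal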
* hit, by the source's call; i = inactive; x = not tested or not shown; & = joins results of further samples. Some of the compounds tested; the hit share may differ from the screen's.

SMILES | Ecoli rRNA inh | Ecoli rRNA inh OD600 | Ecoli rRNA inh RFP | AF4-AF9 inh | E coli growth | FGF22 binding | T cruzi inh | A1 inh | Beta apoptosis | UCH37 DUB inh
COc1ccc(C(=O)NCC2(c3ccc(OC)c(OC)c3)CCCC2)c(OC)c1 | -19 | -18 | -10 | 0.5 | 0.7 | i | 9 | 1.3 | 4 | 2.1
CN1CCCN(S(=O)(=O)c2ccc3ccccc3c2)CC1 | 6 | -1 | 0.5 | -0.1 | 0.63 | i | -8 | -0.2 | -7 | 5.6
CC(=O)N1CCOc2ccc(S(=O)(=O)N3CC(C)CC(C)C3)cc21 (stereo not given) | -8 | -13 | -1.6 | -0.6 | 0.64 | i | 0 | -0.3 | x | 1.8
COc1ccc(NC(=O)c2cccs2)cc1 | x | x | x | x | 0.69 | x | -21 | 0.3 | 5 | 2.1
CCc1nn(CCCN2CCN(c3cccc(Cl)c3)CC2)c(=O)n1CCOc1ccccc1 | -56&-56 | -78&-78 | -11&-15 | 8.0&4.1 | 0.62&0.67 | i | -3&19 | 0.4&-0.4 | 6 | 1.1&-1.9
COc1ccc2c(CC(=O)Nc3ncc(C)s3)coc2c1 | 4 | 9 | 6.7 | -1.1 | 0.71 | i | -16 | -1.1 | 40 | -1.6
O=C(CN1CCOCC1)NN=C(c1ccccc1)c1ccccc1 | 9 | 12 | -0.7 | 1.0 | 0.67 | i | -11 | 0.0 | 0 | 3.6
CN(C)S(=O)(=O)c1cccc(CNCC2COc3ccccc3O2)c1 (stereo not given) | 7 | 6 | 1.8 | 2.3 | 0.67 | i | -12 | 0.7 | -2 | 0.7
COc1ccc(CN(C(=O)c2cccs2)c2nccs2)cc1OC | x | x | x | x | 0.71 | x | 13 | -2.2 | -2 | 4.6
N#Cc1cccc(NC(=O)COC(=O)c2ccc3c(=O)n4c(nc3c2)CCC4)c1 | 2 | 0 | -1.1 | -0.1 | 0.69 | i | -11 | 0.5 | -3 | -12
Cc1ccsc1/C=N/NC(=O)CNC(=O)c1ccccc1 | 6 | 16 | 0.5 | -5.7 | x | i | -12 | -0.7 | -2 | x
COC(=O)c1cc(-c2ccc(OC)c(OC)c2)n[nH]1 | x | x | x | x | 0.69 | x | -4 | 0.4 | 11 | 2.1
CCS(=O)(=O)c1ccc(C(=O)NC)c(Cl)c1Cl | 30 | 14 | 2.1 | -1.7 | 0.68 | i | -2 | 0.2 | 5 | 3.3
CCO/C(C)=C1\C(=O)Nc2ccccc21 | x | x | x | x | 0.73 | x | -9 | -3.1 | -6 | 3.7
Cc1ccc(NC(=O)c2cc3ccccc3oc2=O)cc1S(=O)(=O)N(C)C | x | x | x | x | 0.7 | x | 1 | 0.6 | -10 | 3.1

Whole records as entered above. Order of screens: Ecoli rRNA inh	Ecoli rRNA inh OD600	Ecoli rRNA inh RFP	AF4-AF9 inh	E coli growth	FGF22 binding	T cruzi inh	A1 inh	Beta apoptosis	UCH37 DUB inh
Listed for `CCS(=O)(=O)c1ccc(C(=O)NC)c(Cl)c1Cl` = 30	14	2.1	-1.7	0.68	i	-2	0.2	5	3.3
Listed for `COc1ccc(CN(C(=O)c2cccs2)c2nccs2)cc1OC` = x	x	x	x	0.71	x	13	-2.2	-2	4.6
Listed for `CN1CCCN(S(=O)(=O)c2ccc3ccccc3c2)CC1` = 6	-1	0.5	-0.1	0.63	i	-8	-0.2	-7	5.6

The list goes on:
SMILES | Ecoli rRNA inh | Ecoli rRNA inh OD600 | Ecoli rRNA inh RFP | AF4-AF9 inh | E coli growth | FGF22 binding | T cruzi inh | A1 inh | Beta apoptosis | UCH37 DUB inh
CCOC(=O)C1CCN(S(=O)(=O)Cc2ccccc2)C1=O (stereo not given) | x | x | x | x | 0.73 | x | -10 | -0.2 | 0 | 3.0
O=C(Nc1ccc(F)cc1)c1cc2c(s1)CCCC2 | -39 | -53 | -3.0 | -2.8 | 0.66 | i | -4 | -6.3 | 11 | 2.7
Cn1c2ccccc2c2n[nH]c(=O)nc21 | 25 | 10 | 1.9 | -4.1 | 0.66 | i | -8 | 1.4 | x | 1.1
Cc1ccc2[nH]c(CSc3ccccc3)cc(=O)c2c1 | -14 | -22 | -5.8 | 3.3 | 0.6 | i | 9 | 0.7 | -4 | 2.1
Cc1nc(NCc2ccccn2)c2c3c(sc2n1)CCCC3 | -20 | -36 | -5.4 | 0.6 | 0.67 | i | 9 | 0.4 | 2 | -4.1
Cn1cnnc1SC(C(=O)Nc1cccc(C(F)(F)F)c1)c1ccccc1 (stereo not given) | x | x | x | x | 0.65 | x | -17 | 0.0 | -7 | -2.4
COc1cc(CNCCO)cc(Cl)c1OCc1ccccc1Cl | -20 | -19 | -3.8 | 4.2 | 0.62 | i | 11 | 0.3 | 11 | 8.2
N#Cc1cc2c([nH]c1=S)CCCCCC2 | x | x | x | x | 0.69 | x | 9 | -0.3 | -4 | 1.8
Cc1ccc(S(=O)(=O)N2CCCN(C(=O)OC(C)(C)C)CC2)cc1 | -4 | 9 | -1.8 | x | 0.71 | i | 5 | 0.3 | -1 | -4.7
Cc1ccc(C=NNC(=O)c2cc(-c3cccnc3)nc3ccccc23)o1 | -1 | 11 | 1.8 | 2.3 | 0.67 | i | x | 0.2 | -3 | 6.6
COCCCNC(=O)c1ccc(N(C)S(C)(=O)=O)cc1 | 15 | 14 | 0.1 | x | 0.61 | x | -6 | 0.7 | -2 | 0.0
CC(=O)Nc1ccc(NC(=O)COC(=O)C2(c3ccc(Cl)cc3)CCCC2)cc1 | x | x | x | x | 0.71 | x | 41 | 1.0 | -1 | 4.0
COC(=O)C(NC(=O)c1ccccc1)=C(C)C | x | x | x | x | 0.77 | x | -4 | -0.1 | -2 | 4.1
COc1ccc(CCn2c(-c3ccc(OC)cc3)nc3c(c(=O)c4ccccc4n3C)c2=O)cc1 | 4 | -4 | 0.4 | 1.4 | 0.64 | i | -8 | 0.7 | 2 | 1.3
Cc1nc(SCC(=O)NC(=O)NC(C)C)nc(C)c1C | 16 | 5 | 0.2 | -2.4 | 0.66 | i | -5 | 1.0 | -1 | 3.5
CCOc1ccc(NC(=O)CCNC(=O)c2ccc(Br)cc2)cc1 | 4 | 11 | -2.5 | 0.2 | 0.68 | i | -5 | 0.5 | 1 | 2.1
CN1CCC(=NNc2ncnc3sc4c(c23)CCCC4)CC1 | 4 | -3 | 5.6 | 6.6 | 0.68 | i | 22 | 0.6 | -6 | 4.9
CCn1c(SCC(=O)Nc2nc(-c3ccc(C)cc3)cs2)nnc1-c1ccccc1O | x | x | x | x | 0.72 | x | 23 | 0.2 | 6 | 5.1
O=C(/C=C/c1cccc(Cl)c1Cl)OCC(=O)N1CCOCC1 | 1 | 1 | -0.3 | -2.0 | 0.7 | i | x | x | x | 0.4
COc1ccc(NC(=O)Cn2nnc(C(=O)NCc3ccco3)c2N)cc1 | 6 | 8 | -3.6 | 0.6 | 0.71 | i | -10 | 2.9 | -3 | 3.6
COC(=O)CC1NCCc2cc(OC)c(OC)cc21 (stereo not given) | 14 | 15 | 1.6 | -0.7 | 0.64 | i | 16 | 1.2 | -4 | -9.6
O=C(CCN1CCCCO1)N1CCCC(Nc2ccc(F)cc2)C1 (stereo not given) | 3 | 11 | 1.2 | 0.2 | 0.68 | i | -24 | 0.2 | -5 | 2.1
CN(c1ccc(OCc2nnc(-c3ccccc3)o2)cc1)S(=O)(=O)c1ccccc1 | x | x | x | x | 0.72 | x | 12 | -0.5 | -8 | 4.8
CCC[C@@H](CN1CCC[C@H]1CN1C(N)=NC[C@@H]1Cc1ccccc1)N1C[C@@H](Cc2ccccc2)N(CCc2ccc(Cl)c(Cl)c2)C1=N | -55 | -80 | -30 | 30* | x | x | x | 0.7 | 5 | 4.5
CO/N=C\c1cc(C(=O)c2ccc(Cl)cc2Cl)cn1C | -34 | -49 | 1.0 | 15 | x | x | -1 | -1.8 | x | x
Cc1cccc(N2CCN(C(=O)CCn3c(=O)[nH]c4ccccc4c3=O)CC2)c1C | x | x | x | x | 0.72 | x | 2 | 1.2 | x | 5.4
CN1CCN(C(=O)c2cnn(-c3ccccc3)c2NC(=O)c2ccccc2Cl)CC1 | 4 | 12 | -0.7 | 0.7 | 0.68 | i | -22 | 2.3 | -4 | 0.0
S=C(Nc1ccccc1)Nc1ccc(OCc2ccc(Cl)cc2Cl)cc1 | x | x | x | x | 0.76 | x | -15 | x | 2 | 4.5
N/C(=N\OC(=O)c1ccccc1)c1ccncc1 | 24 | 20 | 0.6 | -2.3 | 0.7 | x | 10 | -3.4 | x | 5.4
CCOC(=O)C1CCN(C(=O)c2cc(COc3ccc(OC)c4ccccc34)on2)CC1 | -12 | -27 | -0.3 | -14 | 0.7 | i | 11 | -1.3 | -2 | 3.6
O=C(CSC1CCCCC1)Nc1nccs1 | x | x | x | x | 0.74 | x | -15 | -1.2 | -1 | 5.1
Cc1ccc(Cl)cc1NC(=O)c1ccc(Cn2cc(Cl)cn2)cc1 | -34 | -40 | -9.6 | -6.4 | 0.71 | i | -2 | 0.4 | 3 | 2.2
CC(=O)C(N=Nc1ccccc1)(Sc1nnc(-c2ccccc2)n1-c1ccccc1)C(C)=O | x | x | x | x | 0.78 | x | 25 | -0.9 | 2 | 0.8
CCN(CCn1cccn1)C(=O)c1ccc2nc(Cc3ccc(OC)cc3)oc2c1 | 1 | 2 | -5.3 | -0.5 | 0.68 | i | -1 | -0.6 | -6 | 3.5
COc1cccc(-c2noc(CCC(=O)NCCc3ccccc3)n2)c1 | -13 | -16 | 3.6 | -0.8 | 0.67 | i | 8 | -0.6 | -11 | 0.5
COC(=O)CSc1[nH]c2ccccc2c1[N+](=O)[O-] | -4 | -1 | -5.5 | -0.5 | 0.65 | i | -7 | 0.6 | -2 | 7.6
CCOc1cc(C2NC(=O)NC(O)(C(F)(F)F)C2C(=O)c2ccc(Cl)cc2)ccc1O (stereo not given) | -28 | -32 | -18 | -3.9 | 0.69 | x | -10 | -7.2 | -2 | 0.5
COc1cccc(Cn2nnc(C(=O)NCCc3ccc(Cl)cc3)c2N)c1 | 2 | 19 | -2.8 | -3.2 | 0.76 | i | -7 | -0.3 | -2 | 2.8
COc1ccc(CC(=O)NCc2nnc(SCC(=O)Nc3ncc(C)s3)n2C)cc1 | 7 | 5 | -5.2 | -1.9 | 0.71 | i | -3 | 2.4 | -4 | 2.0
COc1cccc(OC)c1C(=O)OCc1c(-c2ccccc2)ncc2ccccc12 | -9 | -13 | 13 | -1.7 | 0.72 | i | x | -0.4 | 2 | 0.5
COc1cccc(OCC(O)CN2CCC(Cc3ccccc3)CC2)c1 (stereo not given) | x | x | x | x | 0.74 | x | 17 | -0.3 | -11 | 3.5

Screens (PubChem BioAssay)
